# RGS16-Gao HTS – RGS16-Galphao interaction regulator (human); hit rate 0.38% among 220,000; bead-based flow cytometry RGS16-Galphao binding, fluorescence; actives lie on both sides; binding response (% of control), % at 10 µM; O15492+P09471;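 active = below 25% or above 175%, edge rows of some plates excepted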;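 also: Galphao activated by GDP with aluminum fluoride before binding; 100% = wells without compound and 0% = beads without RGS; some results beyond the cut were filed as inactive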
# Target sequence (O15492 whole entry, looked up): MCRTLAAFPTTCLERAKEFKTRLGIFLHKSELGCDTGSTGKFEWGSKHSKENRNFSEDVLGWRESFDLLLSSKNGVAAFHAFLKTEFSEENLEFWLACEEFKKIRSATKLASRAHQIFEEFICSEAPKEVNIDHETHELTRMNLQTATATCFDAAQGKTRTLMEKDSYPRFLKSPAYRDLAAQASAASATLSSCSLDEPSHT
# Target sequence (P09471 whole entry, looked up): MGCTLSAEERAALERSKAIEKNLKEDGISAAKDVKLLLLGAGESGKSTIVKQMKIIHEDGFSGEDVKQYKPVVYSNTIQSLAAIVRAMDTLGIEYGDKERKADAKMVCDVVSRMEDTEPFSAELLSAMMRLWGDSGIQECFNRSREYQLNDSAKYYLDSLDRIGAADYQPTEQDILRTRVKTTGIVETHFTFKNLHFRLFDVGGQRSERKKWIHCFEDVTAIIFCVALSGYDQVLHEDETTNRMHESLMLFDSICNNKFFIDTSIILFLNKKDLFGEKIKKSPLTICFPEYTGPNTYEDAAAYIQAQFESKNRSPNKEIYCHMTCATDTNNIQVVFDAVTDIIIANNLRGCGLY
# HSV augment – HSV replication enhancement. HSV replication augmentation in cells, fold increase. maximum fold increase. hit rate 0.005% among 220,000. AID 1956;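 active = peak rise of 1.5-fold or more in the series; tested in PC3 cells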;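 also: first round at 10 µM; read as green reporter fluorescence; hits show the peak of a series up to 25 µM; 1 = signal of infected wells without compound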
# Insulin prom inh – TRM-6 insulin promoter activity inhibition; TRM-6 cells (human fetal islet line), insulin promoter-eGFP reporter, imaging; reporter expression induced with tamoxifen; inhibition, % at 2 µM; hit rate 0.9% among 130,000; AID 1273;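 active = inhibition above the mean plus 3 SD, with well images judged a real hit on visual review, cut at about 60% in these data, passing the limit was not always enough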
# PKD1 kinase inh – inhibitors of human PKD1 kinase | Q15139 | PKD1 kinase fluorescence polarization assay | inhibition, %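 (about 10 µM by stock and volumes)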 | hit rate 0.056% among 200,000;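 active = inhibition of 50% or more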;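 also: controls were vehicle for no effect and a reference inhibitor for full effect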
# GALR2 ag – GALR2 (human) receptor agonism. O43603. GALR2-expressing cells, agonist activation read-out. activation, %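 (tested at 5 µM)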. hit rate 0.48% among 140,000. AID 803;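 active = above mean plus 3 SD of all compounds, about 5% in these data, not always enough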;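 also: 0% = vehicle buffer wells and 100% = reference agonist at full effect; tested in CHO reporter cells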
# Target sequence (O43603 whole entry, looked up): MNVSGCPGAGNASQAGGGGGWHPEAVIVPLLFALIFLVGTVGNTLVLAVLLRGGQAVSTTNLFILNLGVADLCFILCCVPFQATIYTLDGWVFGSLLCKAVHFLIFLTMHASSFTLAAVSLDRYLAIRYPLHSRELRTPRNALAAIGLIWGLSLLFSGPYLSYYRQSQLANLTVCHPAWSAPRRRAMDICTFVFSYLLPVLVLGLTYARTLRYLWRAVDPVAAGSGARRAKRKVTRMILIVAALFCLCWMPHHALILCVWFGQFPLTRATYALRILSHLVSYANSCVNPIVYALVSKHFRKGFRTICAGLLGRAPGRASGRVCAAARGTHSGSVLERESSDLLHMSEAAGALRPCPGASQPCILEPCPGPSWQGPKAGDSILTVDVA
# Insulin prom inh cell count – second read-out of Insulin prom inh, no call of its own (marks repeat the call); normalized cell count, %; measured here: cell count, toxicity; reference of the scale not given here;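 cells exposed to compound for 48 h; stained nuclei by imaging scaled within each plate; lower means fewer cells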
# HSV augment primary fold – recorded beside HSV augment, whose call it bears; fold increase; compound at 10 µM; measured here: primary screen fold increase 10 uM; tested in PC3 cells;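 GFP signal in the first replicate; 1 = infected wells without compound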
# * marks the source's active call; other numbers are inactive results; i = inactive; · = no result given.
Molecule,GALR2 ag,HSV augment,HSV augment primary fold,PKD1 kinase inh,Insulin prom inh cell count,Insulin prom inh,RGS16-Gao HTS
CC1(c2ccccc2)NC(=O)N(CC(=O)Nc2ccc3c(c2)OCO3)C1=O (configuration not stated),-3.4,i,1,4,91,-3,86
O=C(NNc1nc(-c2ccccc2)c2cc(Br)ccc2n1)c1ccc(S(=O)(=O)N2CCCCC2)cc1,-0.3,i,0.87,-13,162,12,84
CC(CN1CCCCC1)OC(=O)c1cc2ccccc2o1 (configuration not stated),-1.9,i,0.91,12,55,0,98
CC(=O)N1CCN(c2ccc(NC(=O)c3ccccc3Br)cc2Cl)CC1,-0.8,i,1,-7,·,·,97
CC(=O)Nc1cccc(-c2nc3ccccc3s2)c1C,·,i,0.93,-10,·,·,108
Cc1nonc1NC(=O)CSc1nc(CCC2CCCC2)nc2ccccc12,·,i,0.92,·,·,·,100
CC(C)CNC(=O)c1ccccc1NC(=O)c1ccc(CSc2ccccc2)cc1,1.3,i,0.93,0,105,45,83
O=C(O)C1CCCN1S(=O)(=O)c1ccc(Br)s1 (configuration not stated) (tested in a mixture with another compound),-3.4,i,1,-7,·,·,93
Cc1cccc(N2NC(=O)/C(=C/c3ccc(-c4ccc(Cl)c(C(=O)O)c4)o3)C2=O)c1,·,i,1.2,7,192,-8,97
Cc1ccn(-c2cc(O)c(-n3ccc(C)n3)cc2O)n1,·,i,0.88,-3,·,·,101
CC(C)(C)C(=O)Nc1ccccc1C(=O)NCc1ccco1,-0.9,i,1.1,-2,·,·,94
CCOC(=O)c1c(C)[nH]c(C(=O)CSc2nnc(-c3ccncc3)n2CC)c1C,-3.9,i,0.99,5,111,-35,105
COC(=O)C1=C(NC(C)=O)CCS1,-1.5,i,1.1,11,84,31,80
CN(C(=O)CCc1nnc(CCCCc2ccccc2)o1)C1CCOCC1,·,i,1.1,-13,111,14,110
Cc1cc(O)c(C=Nc2ccc(Cl)cn2)c(=O)o1,-1.4,i,1.1,-2,106,-15,134
COc1cc(NS(=O)(=O)c2ccc(N/C=C\C(=O)c3ccc(OC)c(OC)c3)cc2)nc(OC)n1,-0.5,i,0.93,-7,103,-11,103
CCO[C@@H]1OC(C(=O)Nc2ccccc2)=C[C@H](c2ccc(C(F)(F)F)cc2)[C@H]1CCCO,·,i,0.88,-9,·,·,103
CCC(=O)N1c2ccc(S(=O)(=O)CCC(=O)NCc3cccs3)cc2CC1C (configuration not stated),-2.0,i,0.9,-4,100,-7,94
CCCNC(=O)Nc1nnc(C2CC2)s1,·,i,1.1,1,·,·,99
Cc1ccc(C(=O)CN(C(=O)c2ccc(Cl)c(Cl)c2)N2C(=O)C3CCCCC3C2=O)cc1C (configuration not stated),0.1,i,0.9,-9,110,21,86
CC(C)(C)c1ccc(C(=O)Nc2ccc(NC(=O)C(=O)O)cc2)o1,·,i,0.96,1,100,33,105
CN(C)C(=O)CCc1nc(-c2ccc(C(C)(C)C)cc2)no1,-1.4,i,0.76,1,74,-92,100
CCOc1ccc(-c2nc(-c3ccc(OC)cc3)no2)cc1OCC,-2.6,i,0.81,11,·,·,111
N/C(=N\OC(=O)Cc1cccs1)c1ccc(Br)cc1,-0.6,i,0.9,4,93,33,104
O=C(CSc1nnc(-c2ccncc2)o1)N1CCCCCC1,·,i,0.84,0,·,·,100
CCOc1ccc(NC(=O)CCCc2cc(-c3ccc(OCC)cc3)on2)cc1,-2.7,i,0.91,-11,103,32,103
CCCn1c(N)c(Sc2ccc(Cl)cc2)c(=O)n(CCC)c1=O,-3.0,i,1,-3,58,43,102
Cc1ccc(-c2nc(CN(C)Cc3cccc4cnccc34)c(C)o2)s1,·,i,0.96,1,·,·,108
Cc1cc(Br)ccc1NCc1ccccn1,-3.5,i,0.96,-13,140,-64,105
CCC1=NN(C(=O)C(=O)Nc2ccc(Br)cc2)C(O)(C(F)(F)F)C1 (configuration not stated),·,i,0.96,-4,·,·,103

# In the list so far, these contain a COOH group:
Molecule,GALR2 ag,HSV augment,HSV augment primary fold,PKD1 kinase inh,Insulin prom inh cell count,Insulin prom inh,RGS16-Gao HTS
O=C(O)C1CCCN1S(=O)(=O)c1ccc(Br)s1 (configuration not stated) (tested in a mixture with another compound),-3.4,i,1,-7,·,·,93
Cc1cccc(N2NC(=O)/C(=C/c3ccc(-c4ccc(Cl)c(C(=O)O)c4)o3)C2=O)c1,·,i,1.2,7,192,-8,97
CC(C)(C)c1ccc(C(=O)Nc2ccc(NC(=O)C(=O)O)cc2)o1,·,i,0.96,1,100,33,105

# Later entries.
Molecule,GALR2 ag,HSV augment,HSV augment primary fold,PKD1 kinase inh,Insulin prom inh cell count,Insulin prom inh,RGS16-Gao HTS
Cc1cc(C)c2c(=O)c(C#N)coc2c1,·,i,1,·,·,·,102
COc1ccc(NC(=O)CN(C2CCCCC2)S(C)(=O)=O)cc1OC,-2.1,i,1.1,-2,78,0,104
O=C(NCc1cccnc1)C(=O)NCC1CCCO1 (configuration not stated),·,i,0.95,4,·,·,99
COCCOC(=O)c1c(C)n(C)c2ccc(OC(=O)C3CC3)cc12,0.3,i,0.88,3,·,·,114
COc1ccc(NC(=O)c2cc(Br)ccc2Cl)c(OC)c1,-0.3,i,0.94,-12,134,-55,111
CCCCn1c(SCC(=O)NCc2ccco2)nc2ccc(N3CCOCC3)cc2c1=O,-0.8,i,0.94,-4,97,3,100
Cc1cccc(-n2c(O)cnc2Nc2nc(C)cc(C)n2)c1,·,i,1,0,·,·,99
COc1ccc(/C=C/C(=O)c2ccc3c4c(cccc24)CC3)cc1,-0.7,i,0.72,-4,·,·,106
Cc1ccccc1N1C(S)=C(C#N)C(=O)NC1c1cccs1 (configuration not stated),-1.8,i,0.88,-15,149,16,100
O=C(Nc1ccc2ccccc2c1)C(c1ccccc1)C1CCCC1 (configuration not stated),-1.1,i,1.1,9,·,·,70
O=CN1CCN(C(C(=O)NC2CCCCC2)c2cc3c(cc2[N+](=O)[O-])OCO3)CC1 (configuration not stated),·,i,1.1,-9,80,7,93
O=c1c2c(nc3n1CCS3)c1cc(F)ccc1n2Cc1cc(=O)n2cc(Cl)ccc2n1,·,i,1,·,·,·,92
CCCCOc1ccc(C(C)NC(=O)CCS(=O)(=O)Cc2ccccc2Cl)cc1 (configuration not stated),-0.3,i,0.84,3,125,-57,102
O=C(CSc1nc2cc(Cl)ccc2s1)Nc1cccc(S(=O)(=O)N2CCOCC2)c1,-0.3,i,0.77,4,130,-65,103
Cc1ccc(-c2nn(CC(N)=O)c(=O)c3ccccc23)cc1S(=O)(=O)N(C)C,34*,i,1.1,-10,75,8,99
Cn1c(NCC(O)c2ccccc2)nc2c1c(=O)n(Cc1ccc(Cl)c(Cl)c1)c(=O)n2C (configuration not stated),-1.4,i,0.96,-15,116,-78,·
Cc1ccccc1OCC(=O)NC(=S)Nc1ccc(S(=O)(=O)NC2CCCCC2)cc1,-1.2,i,1,2,160,5,108
Cc1cc(C)n(-c2nc(-c3ccc(Cl)c(Cl)c3)cs2)n1,-2.1,i,1,10,75,-63,99
COc1ccc(NC(=S)N(CCCN2CCC(C)CC2)Cc2cccs2)cc1Cl,·,i,0.93,-7,·,·,92
CCOc1ccc(NC(=O)CN2CCN(CC(=O)c3ccc(OCC)cc3)CC2)cc1,0.7,i,0.87,-4,121,-3,101
CCn1c(CSc2nc(C)cc(C)n2)nnc1SCC(=O)Nc1nc(-c2ccccc2)cs1,-0.6,i,0.83,4,96,24,94
CNC(=O)CSc1nnc(-c2cnccn2)n1C,·,i,1.1,-7,121,33,113
Cc1ccc(-n2c(SCCN)nnc2-c2cccc(C)c2)cc1,·,i,0.9,·,·,·,104
CN(Cc1cc([N+](=O)[O-])c2cccnc2c1O)C1CCCCC1,23*,i,0.99,-6,73,23,97
Cn1c(=NC(=O)c2ccc(S(=O)(=O)N3CCCc4ccccc43)cc2)sc2cc(S(C)(=O)=O)ccc21,-0.7,i,1.1,0,·,·,105
CC(C)(C)CC(=O)Nc1nnc(SCC(=O)NCc2cccs2)s1,·,i,0.98,2,·,·,105
Cc1cc(C)nc(NC2=NCC(=O)N2c2ccccc2Br)n1,-1.5,i,1,-5,·,·,102
CCOc1ccccc1CN1C(=O)c2ccccc2C1C(=O)NC(C)CC (configuration not stated),-0.3,i,1.1,4,46,-56,107
O=C(O)c1ccccc1-c1ccccc1C(=O)Nc1nc2ccccc2s1,·,i,1.1,·,·,·,104
CCCc1cc(=O)[nH]c(SCC(=O)N(C)CC(=O)Nc2ccc(C)cc2)n1,-2.4,i,1.1,6,·,·,101

# Some values from the entries so far:
# Result for `CCOc1ccc(-c2nc(-c3ccc(OC)cc3)no2)cc1OCC` under HSV augment primary fold: 0.81
# Result for `Cc1cccc(-n2c(O)cnc2Nc2nc(C)cc(C)n2)c1` under RGS16-Gao HTS: 99

# Continued.
Molecule,GALR2 ag,HSV augment,HSV augment primary fold,PKD1 kinase inh,Insulin prom inh cell count,Insulin prom inh,RGS16-Gao HTS
c1cc2nc(C34CC5CC(CC(C5)C3)C4)[nH]c2cn1,-1.8,i,1,-5,42,-314,102
COc1cccc(C2C(C#N)=C(N)Oc3cc(C)n(Cc4ccco4)c(=O)c32)c1 (configuration not stated),-0.2,i,1.1,-1,90,64,98
Cc1ccc(CNC(=O)C2CCN(S(=O)(=O)c3c(C)noc3/C=C/c3ccco3)CC2)cc1,-1.6,i,1,-10,·,·,99
Cn1c(SCC(=O)Nc2ccc3cn[nH]c3c2)nnc1-c1cccs1,-1.9,i,0.99,-1,122,47,84
FC(F)Oc1ccc(-c2csc(NNC3=NCCCCC3)n2)cc1,·,i,0.87,-3,·,·,101
N/C(COc1cccc(Cl)c1)=N\O,·,i,1.1,·,·,·,103
Fc1ccc(CSc2nnc(-c3ccco3)o2)cc1,·,i,1.1,·,·,·,105
O=C(CNC(=O)Cc1ccccc1)NCC(=O)OCC(=O)c1cccc2ccccc12,-3.4,i,0.8,-3,89,7,104
CCOC(=O)c1ccc(-c2ccc(C(=O)Nc3cccnc3)o2)cc1,-2.4,i,0.93,0,116,-30,98
Brc1ccc(-c2noc(CCc3ccccc3)n2)o1,-4.4,i,0.8,15,·,·,104
CC1(C)O[C@H]2OC([C@H](O)CON3C(=O)c4ccccc4C3=O)[C@H](O)[C@H]2O1 (some centres not stated),-1.8,i,0.9,-13,76,-264,96
O=C1C(Cl)=C(NCCCO)C(=O)c2ccccc21,-1.8,i,0.98,-7,85,-57,103
CCOC(=O)C1=C(C)NC(=S)NC1c1ccco1 (configuration not stated),·,i,0.92,·,·,·,109
NS(=O)(=O)c1ccc(NC(=S)Nc2ccc(C(=O)N3CCCCC3)cc2)cc1,·,i,1,1,·,·,101
COCCNC(=O)c1ccc2c(c1)NC(=O)CS2,-1.7,i,0.98,-8,·,·,102
O=C(CSc1ccccc1)Nc1nccs1,·,i,0.94,0,190,18,111
c1ccc(-c2nnsc2-c2ncc[nH]2)cc1,·,i,0.9,-1,·,·,118
CCOC(=O)c1ccc(N2CCN(C(C)=O)CC2)c(NC(=O)c2cccnc2)c1,·,i,0.95,6,·,·,103
Cc1oc(-c2ccccc2F)nc1CS(=O)(=O)CC(=O)NC1CCCC1,-1.5,i,0.86,-4,77,0,102
CN(C)/C=N/c1c(C#N)cnn1C,·,i,1.1,0,·,·,95
O=C(O)CNC(=S)N(Cc1cccs1)C1CCCCC1,-1.0,i,1,2,·,·,109
O=C(N/N=C/c1ccccc1OC(F)F)C1=COCCO1,·,i,1,-4,77,-17,107
CC1(C)c2ccccc2N2CC(=O)NC21/C=C/c1ccco1 (configuration not stated),-1.8,i,1.1,1,71,0,84
O=c1cc(CN2CCN(c3ccccn3)CC2)nc2sccn12,·,i,1.1,8,·,·,100
COc1cccc(C2c3c(-c4cc(Cl)c(C)cc4O)n[nH]c3C(=O)N2Cc2cccnc2)c1 (configuration not stated),0.6,i,0.86,6,65,19,99
O=C1CC(N(O)C2CC(=O)N(Cc3ccccc3)C2=O)C(=O)N1Cc1ccccc1 (configuration not stated),-1.0,i,0.82,-5,105,-14,98
S=C1NC2=C(CCCC2=C2SCCS2)C(c2ccccc2)N1 (configuration not stated),·,i,0.98,-7,·,·,99
Cc1nc(Nc2ccccc2)sc1C(=O)c1ccccc1,·,i,0.96,·,·,·,102
Cc1cc(NC(=O)CCl)n(-c2nc3ccccc3s2)n1,·,i,0.86,-4,145,67,97
